Bioassay records deposited in PubChem by National Center for Advancing Translational Sciences (NCATS).
YjeE inh = displaces an ADP probe from E. coli YjeE (TsaE). P0AF67. purified YjeE, fluorescence polarisation of a bound ADP probe. Potency, µM. 71,000 tested, 0.05% active. AID 605; active = well fitted falling curve; inconclusive = weaker or top-dose-only fall, or a rising curve; inactive = flat or poorly fitted curve;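 also: top concentration of the series not given in the record; excess ADP was the control for the full effect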
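Fluorescence polarization of a BODIPY Texas Red–ADP probe (2 uM) bound to purified YjeE (10 uM) was read after 15 min room-temperature incubation with compounds. Loss of polarization marks inhibitors; ADP serves as titrated control.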
PK Bst = alters activity of Bacillus stearothermophilus pyruvate kinase; partly purified Bacillus stearothermophilus pyruvate kinase, luminescence ATP production; ribose 5-phosphate activator present at AC10; Potency, µM; AID 361; 51,000 tested, 1.2% active; in the data active means potency below about 11 µM; inconclusive means mostly about 12 µM to 25 µM; inactive means weaker than that;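 the screen sought inhibitors and activators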;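 also: potency is read from the fitted curve at half-maximal effect; scaled between full activation by ribose 5 phosphate and full inhibition by luteolin; about four in five hits inhibit and the cells do not say which; series up to 57 µM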
The depositor's hits bear a star; i = inactive; ? = inconclusive; / = no result given. Some of the compounds tested (hit frequency here may not be typical).

SMILES | YjeE inh | PK Bst
COc1cccc(CNC(=O)C2CCN(C(=O)N(C)C)CC2)c1 | i | >57
O=C(Cn1cc2c(n1)CCCCC2)N1CCCCC1 | i | /
COc1ccc(-c2[nH]c(-c3ccc(F)cc3)nc2SCC(=O)NCc2ccco2)cc1OC | i | /
c1cncc(-c2nnc3sc(-c4ccco4)nn23)c1 | / | >26
COc1cccc2c(=O)c(C(=O)NCc3cccs3)c[nH]c12 | i | i
O=C(NCCCN1CCN(Cc2ccccc2)CC1)C1CCN(S(=O)(=O)N2CCCC2)CC1 | i | >57
O=C(CSc1nnc(-c2ccc(O)cc2)n1Cc1ccco1)N1CCc2ccccc2C1 | i | i
COc1ccc(CNc2cc(-c3cccc(C#N)c3)ncn2)c(OC)c1 | i | /
c1cnc(-c2nnc3n2CCCCC3)cn1 | i | >57
O=C(NCc1ccccn1)c1c(O)c2cccc3c2n(c1=O)CC3 | i | ?
Sc1ccc2ccccc2c1CNCc1ccccc1 | i | /
COc1ccc(-c2nnc(SCC#CCO)o2)cc1OC | i | >57
COc1ccc(C)cc1S(=O)(=O)N(CC(=O)N1CCOCC1)Cc1ccccc1 | i | >57
CCOC(=O)CSc1nnc(CNC(=O)c2ccc(OC)cc2OC)n1C | i | >57
CCC[C@H]1C(=O)N2C(N(C)C)=Nc3ccc(C)cc3N2C1=O | i | /
CCOC(=O)c1c(COC(=O)c2ccco2)nc2ccccc2[n+]1[O-] | i | >57
O=C(NCC1CCCO1)c1ccccc1-c1nc(-c2ccc(F)cc2)no1 (stereo not given) | i | >57
O=C(CC1c2ccccc2Oc2ccccc21)N1CCN(c2ccccn2)CC1 | i | /
O=C1Nc2cc3c(cc2Sc2ccccc21)OCCO3 | i | >57
Cc1c(OC(=O)CNC(=O)OC(C)(C)C)ccc2c3c(c(=O)oc12)CCC3 | i | i
Cc1ccccc1-n1c(=O)cc(NCC2CCCO2)[nH]c1=O (stereo not given) | i | >57
COc1ccc2c(c1OC)C(=O)N(c1ncn[nH]1)C2 | i | >57
COc1cccc(-c2nc(CS(=O)(=O)CC(=O)Nc3cc(C)ccc3C)c(C)o2)c1 | i | /
CCOc1ccc(NC(=O)c2ccccc2CO)cc1 | i | /
Brc1ccc(OCCn2ccnc2)cc1 | i | /
O=C(O)c1ccc(C2SCC(=O)N2Cc2ccccc2)cc1 (stereo not given) | i | >57
CC(NC(=O)COc1ccccc1)C1COc2ccccc2O1 (stereo not given) | i | >57
COc1cccc(-c2nc(NC(C)(C)C)c3ccccc3n2)c1O | / | >26
CCOC(=O)C12CNC(=O)C(C(=O)OCC)(CNC1=O)C2 | i | >57
CCOC(=O)c1cnc(SCC(=O)Nc2ccc(NC(C)=O)c(OC)c2)nc1N | i | >57
COc1ccc(Cn2nnnc2C(c2cc(OC)ccc2OC)N2CCC(C(N)=O)CC2)cc1 (stereo not given) | i | >57
COc1ccccc1-c1c(C)oc2c(CN3CCN(C)CC3)c(O)ccc2c1=O | / | >26
COc1cccc(NC(=O)CN2CCN(S(=O)(=O)c3ccc(C(C)C)cc3)CC2)c1 | i | >57
COc1ccc([C@H](O)c2ccccn2)cc1 | i | /
O=C(NC1CCCC1)C(c1cccs1)N(Cc1ccco1)C(=O)Cn1nnc(-c2cccs2)n1 (stereo not given) | i | >57
COCCNC(=O)C(C)N(c1ccc(Oc2ccccc2)cc1)S(C)(=O)=O (stereo not given) | i | /
COc1ccc(C2C=C(c3ccc(Br)cc3)Nc3nc(N4C(=O)CCC4=O)nn32)cc1 (stereo not given) | i | /
CCOC(=O)C1=C(C)N(C)C(C)=C(C(=O)OCC)C1c1cccnc1 | i | >57
CCCC(=O)Nc1ccc(NC(=O)C2CC2)cn1 | i | >57
COc1ccc(OC)c(C2=NO[C@@H]3C(=O)N(c4cc(Cl)ccc4OC)C(=O)[C@H]23)c1 | i | >57
O=C(Nc1nnc(C2CC2)s1)C1Cc2ccccc2CN1S(=O)(=O)c1cccs1 (stereo not given) | i | >57
CN1CCN(c2nc3c(c(=O)[nH]c(=O)n3C)n2CCSc2nc3ccccc3s2)CC1 | i | /
O[C@@H]1[C@@H]2c3cc4c(cc3CN3CCC(=C[C@@H]1O)[C@H]23)OCO4 | i | /
Cc1ccc(C(=O)Nc2ccc(S(=O)(=O)N3CCc4ccccc43)cc2)o1 | i | ?
Cc1onc(-c2c(Cl)cccc2Cl)c1C(=O)NCCCN1CCOCC1 | i | >57

Quoted at random: two records from the list
SMILES | YjeE inh | PK Bst
O=C(NC1CCCC1)C(c1cccs1)N(Cc1ccco1)C(=O)Cn1nnc(-c2cccs2)n1 (stereo not given) | i | >57
Cc1onc(-c2c(Cl)cccc2Cl)c1C(=O)NCCCN1CCOCC1 | i | >57

(more compounds)
SMILES | YjeE inh | PK Bst
CC1CCN(c2nc3c(c(=O)n(C)c(=O)n3C)n2Cc2ccccc2)CC1 | i | >57
COCc1nnc(SCC(=O)Nc2cccc(Cl)c2C)n1-c1ccccc1 | i | /
O=C(O)c1cc2cc(OCc3ccccc3)ccc2[nH]1 | i | >57
Cc1cc(C(=O)N2CCN(c3ncccn3)CC2)cs1 | i | >57
O=C(Nc1ccc(O)cc1)C1CC=CCC1 (stereo not given) | ? | /
Cc1nn(CC(=O)O)c(C)c1C | i | >57
COc1ccc2ccccc2c1CN1CCN(C(=O)c2ccccc2)CC1 | i | /
CCOc1ccc(NC(=O)CSc2nnnn2CC(=O)O)cc1 | i | i
Cc1c(/C(O)=C2/C(=O)C(=O)N(CCN3CCOCC3)C2c2cccs2)cnn1-c1ccccc1 (stereo not given) | i | /
CC(C)NC(=O)CN(CCc1ccccc1)S(C)(=O)=O | i | >57
Clc1cccc(CSc2nnc(-c3ccccn3)n2Cc2ccco2)c1 | i | >57
CCCOc1ccc(C2C(C(=O)c3ccc(C)o3)=C(O)C(=O)N2Cc2cccnc2)cc1 (stereo not given) | i | >57
Cc1ccc(P(=O)(CC(=O)O)c2ccc(C)cc2)cc1 | i | >57
COc1ccccc1OCCSc1nnnn1-c1ccc(C)cc1 | i | /
COC(=O)[C@@]1(Cc2ccc(OC)cc2)[C@H]2c3cc(C(=O)N(C)C)n(Cc4c(CO)[nH]cc(C)c4=O)c3C[C@H]2CN1C(=O)c1ccccc1 | i | /
Cc1csc2c(=O)n3c(nc12)CCCCC3 | i | >11
CC(C)C1C(C#N)=C(N)Oc2n[nH]c(-c3ccccc3)c21 (stereo not given) | i | >57
Fc1ccc(C(c2ccc(F)cc2)N2CCN(C/C=C\c3ccccc3)CC2)cc1 | i | /
COCCn1c(=O)c(-c2cccs2)nc2cnc(N3CCOCC3)nc21 | i | /
COc1ccc(S(=O)(=O)N(CC(=O)N2CCN(C)CC2)c2ccccc2)cc1OC | i | >57
O=C(CN1CCOCC1)N1CCc2ccccc2C(c2ccccc2)C1 (stereo not given) | i | ?
O=C(Cn1c(=O)oc2ccccc21)Nc1ccc2c(c1)OCCO2 | i | >57
O=c1c2ccccc2c2ccccc2c(=O)n1CC1CCCO1 (stereo not given) | i | /
COc1ccc(C(=O)Oc2ccc(C(C)=O)cc2)c(OC)c1 | i | /
CCNS(=O)(=O)c1ccc(C)cc1 | i | /
COc1cccc(CC(NC(C)=O)C(=O)NC2CCN(c3nc(C)cc(C)c3C#N)CC2)c1OC (stereo not given) | i | >57
COc1ccccc1N1CCN(C(=O)c2cc3cc(Br)ccc3oc2=O)CC1 | i | /
COc1ccc(Cl)cc1NC(=O)COC(=O)CCNC(C)=O | i | >57
CC(=NCCN1CCOCC1)C1=C(O)c2ccccc2C1=O | i | /
O=S1(=O)CCN(c2ccccc2CC(c2c[nH]c3ccccc23)c2c[nH]c3ccccc23)CC1 | i | /
C[C@@H](CCC[C@@H]1SC[C@H]2NC(=O)N[C@H]12)C(=O)O | i | /
CCOC(=O)C1CCN(S(=O)(=O)Cc2ccc(Cl)cc2)CC1 | i | >57
CCNC(=O)c1sc(=S)n(CC)c1N | i | >57
N#CCCCSc1nnnn1-c1cccc(Cl)c1 | i | /
CC1CN(C(=O)c2cccc(S(=O)(=O)N3CCOCC3)c2)CC(C)O1 (stereo not given) | i | >57
COc1cccc(OCc2nnc(SC)n2C)c1 | i | >57
O=C(NCCCN1CCN(c2ccccc2F)CC1)C1CCC(=O)N1C1CCCC1 (stereo not given) | i | /
Cc1cc(Cl)c(S(=O)(=O)Nc2ccccn2)cc1OCC(N)=O | i | >57
COc1ccc(OC)c(NC(=O)c2cc(-c3ccc(C)cc3O)n[nH]2)c1 | i | >57
O=C(Oc1ccc2c(c1)OCO2)c1cc2c(s1)CCC2 | i | >57
COc1ccccc1NC(=O)C1=C(C)NC2=C(C(=O)CCC2)C1c1ccc(C)o1 (stereo not given) | i | >57
CCCS(=O)(=O)N1CCC(C(=O)N2CCC(Cc3ccccc3)CC2)CC1 | i | >57
N#CC1=C(N)NC(SCc2ccc(F)cc2)=C(C#N)C12CCCCC2 | / | >26
CCCC/C=C/C(NC(=O)c1cccs1)c1ccccc1 (stereo not given) | i | /
CN1C(=O)c2ccccc2N(C)C1c1ccc2c(c1)OCO2 (stereo not given) | i | /
CC(C)CC(OC(=O)c1ccco1)C(=O)NCC1CCCO1 (stereo not given) | i | >57
CC(=O)N1[C@H](Cc2ccccc2)C=C[C@]1(C)C(=O)NCc1ccccn1 | i | /
CCOc1ccccc1CN(CCc1ccc2c(c1)OCO2)Cc1ccccn1 | i | /
c1cc(-c2noc(CC3CCCCC3)n2)ccn1 | i | >57
COCCCNC(=O)c1cccc(OC)c1OC | i | >57
COc1ccc(-c2cn3c(C)c(C(=O)NCCN4CCOCC4)sc3n2)cc1 | i | /
CN(C)Cc1cc(C(C)(C)C)cc(CNC2CCCCC2)c1O | i | /
COc1ccc(-n2c(=O)c(-c3cn(C)c4ccccc34)nc3cnc(OC)nc32)cc1 | i | /
CCOC(=O)N1CCN(C(=O)c2ccc3nc4cc(Cl)ccc4c(=O)n3c2)CC1 | i | >57
Cc1ccc2c(c1)N(CC(=O)NCCc1c[nH]c3ccccc13)C(=O)CO2 | i | >57
COc1cc(/C=C(\C#N)C(N)=O)cc(CSc2nc3ccccc3s2)c1O | i | /
Cc1ccc(NC(=O)Cc2cn3ccsc3n2)nc1 | i | >57
O=C(CN1C(=O)c2ccccc2S1(=O)=O)NCCSCc1ccco1 | / | >26
CCN(CC)c1ccc(-c2nn3c(-c4ccccc4OC)nnc3s2)cc1 | i | >57
CC1(C)CC2CC(C)(CN2C(=O)c2cccs2)C1 (stereo not given) | i | >57
Additional entries
SMILES | YjeE inh | PK Bst
O=CNc1ccccc1Oc1ccccc1 | i | /
O=C(CSc1ncnc2sc3c(c12)CCCC3)c1ccco1 | i | /
OCCN1CCN(c2ncnc3nc[nH]c23)CC1 | i | /
COc1ccc(S(=O)(=O)N(Cc2ccccc2)Cc2nc(-c3ccccc3)no2)cc1 | i | >57
CCSc1nnc(NC(=O)c2ccco2)s1 | i | /
C=CCN1CC2CC3(COc4cc(C)cc(C)c4)C=CC2(O3)C1=O (stereo not given) | i | >57
Cc1ccc(C(=N)c2ccccc2Cc2cccc3ccccc23)c2ccccc12 | i | /
CCOC(=O)c1nc(N)sc1C(=O)OCC | i | /
COCCn1c(SCC(=O)N2CCCc3ccccc32)nc2ccccc2c1=O | i | >57
CSc1nc2c(c(=O)[nH]c(=O)n2C)n1C/C=C(\C)Cl | i | >57
Cc1cc(=O)oc(C)c1C(=O)NCCNC(=O)c1c(C)cc(=O)oc1C | / | >11
O=c1c2ccccc2nc(-c2ccoc2)n1CCc1ccccc1 | i | >57
O=S1(=O)C=C(Oc2ccc(F)cc2)c2ccccc21 | i | >57
COc1cc(C(=O)COC(=O)Cc2cnc3sccn23)cc(OC)c1OC | i | >57
Cc1noc(C)c1COC(=O)c1cc2c(C)nn(-c3ccc(F)cc3)c2s1 | i | >57
C[C@@H](C(=O)N[C@@H](CO)Cc1ccccc1)[C@H]1C[C@]1(C)[C@H](NC(=O)OCc1ccccc1)c1ccccc1 | i | /
CCOCCCNC(=O)C(NC(=O)CNC(C)=O)c1ccc(Cl)cc1 (stereo not given) | i | >57
CN1CCN(c2ccnc(-c3cccnc3)n2)CC1 | i | /
N[C@H](CCC(=O)NCC(=O)O)C(=O)O | i | /
CCOC(=O)c1cnc(-n2nc(C)cc2C)nc1NC | i | /
CCCC(=O)OCCn1c(Br)nc2c1c(=O)[nH]c(=O)n2C | i | >57

Of the compounds above, 14 have a furan ring, fused or not:
SMILES | YjeE inh | PK Bst
COc1ccc(-c2[nH]c(-c3ccc(F)cc3)nc2SCC(=O)NCc2ccco2)cc1OC | i | /
c1cncc(-c2nnc3sc(-c4ccco4)nn23)c1 | / | >26
O=C(CSc1nnc(-c2ccc(O)cc2)n1Cc1ccco1)N1CCc2ccccc2C1 | i | i
CCOC(=O)c1c(COC(=O)c2ccco2)nc2ccccc2[n+]1[O-] | i | >57
O=C(NC1CCCC1)C(c1cccs1)N(Cc1ccco1)C(=O)Cn1nnc(-c2cccs2)n1 (stereo not given) | i | >57
Cc1ccc(C(=O)Nc2ccc(S(=O)(=O)N3CCc4ccccc43)cc2)o1 | i | ?
Clc1cccc(CSc2nnc(-c3ccccn3)n2Cc2ccco2)c1 | i | >57
CCCOc1ccc(C2C(C(=O)c3ccc(C)o3)=C(O)C(=O)N2Cc2cccnc2)cc1 (stereo not given) | i | >57
COc1ccccc1NC(=O)C1=C(C)NC2=C(C(=O)CCC2)C1c1ccc(C)o1 (stereo not given) | i | >57
CC(C)CC(OC(=O)c1ccco1)C(=O)NCC1CCCO1 (stereo not given) | i | >57
O=C(CN1C(=O)c2ccccc2S1(=O)=O)NCCSCc1ccco1 | / | >26
O=C(CSc1ncnc2sc3c(c12)CCCC3)c1ccco1 | i | /
CCSc1nnc(NC(=O)c2ccco2)s1 | i | /
O=c1c2ccccc2nc(-c2ccoc2)n1CCc1ccccc1 | i | >57
